# Mtb hypoxia rep – Mtb hypoxia fluorescent reporter inhibition; 300,000 compounds, 0.1% hits; M. tuberculosis hypoxia-regulated fluorescent reporter, fluorescence; AID 1159583; fluorescence inhibition, % (test concentration not listed);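 active = 35 to 45% if threefold the growth effect, above 45% if 1.5-fold the growth effect; inactive = the rest, general growth blockers included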;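 note: wells of about 50 µL received 100 nL stock; 0% = vehicle wells and 100% = reference inhibitor wells; whole bacteria with a GFP reporter of the hypoxia response; strong numbers were not always called active; many hits fall short of the cut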
# Autofluor counter – counter-screen for toxin protease inhibitors: compound fluorescence. compound autofluorescence counterscreen, microsphere flow cytometry; stronger effect = higher value. AID 624483. 360,000 compounds, 3.1% hits. fluorescence intensity (no concentration beside the values);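 active = at least 3 SD above the mean of all compounds, about 16000 in these data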;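 note: 100 nL of 1 mM stock went into each well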
# BJeLR viability – kills HRASV12-expressing BJeLR cells; BJeLR (HRASV12) viability, CellTiter-Glo ATP luminescence, 48 h; reference of the scale not given here; inhibition, % (test concentration not listed); 300,000 compounds, 0.17% hits;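 active = replicate mean above 50%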;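 note: 50 nL library stock added to about 25 µL; numbers are from one replicate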
# Sa RN4220 lethal – S. aureus RN4220 growth inhibition. OD600, 16 h. inhibition, % (concentration not given with the values). 330,000 compounds, 0.33% hits. AID 1259311;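 active = z-score of -3 or lower and OD600 up to 0.18 on both plates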;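 note: plate controls were untreated cells for no effect and reference antibiotic for full effect; stock transfer was 100 nL into about 80 µL; one replicate is shown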
# PrP UTR inh – inhibition of PrP 5' UTR reporter expression | cell-based PrP 5' UTR mRNA reporter, plate reader | inhibition, % (concentration not given with the values) | 340,000 compounds, 0.35% hits;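 active = every replicate at 50% or more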;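 note: 0 = median of the neutral control wells; tested in H4 reporter cells; numbers are from one replicate; inactives centre near -14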
# ugtP null kill – compounds lethal to S. aureus RN4220 ugtP deletion mutant. OD600 growth, 16 h; some inactives read as strong as hits. growth inhibition, % (test concentration not listed). 330,000 compounds, 0.54% hits;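 active = z-score under -3 and OD600 up to 0.15 on both plates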;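 note: plate controls were untreated wells for no effect and antibiotic for full effect; wells of about 80 µL received 100 nL stock; the first replicate is given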
# Mtb hypoxia rep growth – second read-out of Mtb hypoxia rep, no call of its own (marks repeat the call); growth inhibition, %; measured here: M. tuberculosis growth (absorbance);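 0% = vehicle and 100% = reference antibiotic; read after six days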
# Numbers without * were called inactive; . = no result given. This is a random part of the collection; about 4.1% have a hit in one of these screens.
# Key to letters: A = Mtb hypoxia rep; B = Mtb hypoxia rep growth; C = Autofluor counter; D = BJeLR viability; E = Sa RN4220 lethal; F = PrP UTR inh; G = ugtP null kill
Cc1c(F)cccc1NC(=O)c1ccc2c(c1)CCN2S(C)(=O)=O
  A: -10 | B: 1 | C: 4215 | D: 3 | E: -3.5 | F: -8 | G: -5
CN(C(=O)COC(=O)c1cccc(F)c1)c1ccccc1
  A: 7 | B: 5 | C: 5042 | D: -5 | E: 3.9 | F: -22 | G: 5
CC1CCCC(C)N1S(=O)(=O)c1ccc(NC(=O)CNCC2CCCO2)cc1 (stereo not given)
  A: 7 | B: 7 | C: 10920 | D: -4 | E: 6.1 | F: -17 | G: -9
CC(=O)SCCC(=O)N1C(C)CCCC1C(=O)O (stereo not given)
  A: . | B: . | C: 2148 | D: -4 | E: 3.7 | F: 1 | G: 6
CCCNC(=O)Cn1nc(C(F)(F)F)c2c1CCCC2
  A: . | B: . | C: 3985 | D: -1 | E: 2.0 | F: -19 | G: 6
Cc1cc(OCc2cc(C(=O)N(C)C(C)c3ccccn3)no2)cc(C)c1Cl (stereo not given)
  A: 8 | B: 6 | C: 5506 | D: 5 | E: 2.2 | F: -35 | G: -10
COCCSc1nnc(NC(=O)c2ccc(NC(C)=O)cc2)s1
  A: . | B: . | C: 3971 | D: 3 | E: . | F: -21 | G: .
Cc1nc2c(sc3nc(N4CCOCC4)c4c(c32)CC(C)(C)OC4)c(-c2ccccc2)c1C(=O)O
  A: -5 | B: -10 | C: 4314 | D: -5 | E: 4.3 | F: -31 | G: -3
COc1ccc(NC(=O)COC(=O)CCC2CCCC2)c(OC)c1
  A: 7 | B: 2 | C: 4095 | D: . | E: 7.9 | F: -4 | G: 5
CCCCC(=O)NN=Cc1ccc(Sc2cccc3cccnc23)o1
  A: 17 | B: 4 | C: . | D: . | E: 4.7 | F: . | G: -15
CNc1snc(C)c1C(=O)OC(C)C(=O)Nc1ccccc1 (stereo not given)
  A: -1 | B: 3 | C: 4526 | D: . | E: 6.7 | F: -12 | G: 1
O=C(NCc1ccccc1)c1cc(S(=O)(=O)N2CCOCC2)ccc1F
  A: 4 | B: -2 | C: 3894 | D: 1 | E: -4.7 | F: -16 | G: 6
NC(=O)NC(=O)CC1S/C(=N/N=Cc2ccccc2)NC1=O (stereo not given)
  A: -4 | B: 1 | C: . | D: . | E: 14 | F: . | G: 6
O=C(C1=C[C@@H](c2csc3ccccc23)C[C@@H](OCc2ccc(CO)cc2)O1)N1CCN(Cc2ccc3c(c2)OCO3)CC1
  A: . | B: . | C: 3878 | D: 30 | E: . | F: -2 | G: .
Cc1cccc(N(CC(=O)NCCSCc2ccccc2)S(C)(=O)=O)c1
  A: 10 | B: 8 | C: 4473 | D: 12 | E: 4.4 | F: -24 | G: 7
CC1(C)CC(=O)C=C(N2CCOCC2)C1
  A: 7 | B: 6 | C: 4132 | D: 0 | E: 8.9 | F: -23 | G: 6
CCOc1cc(/C=N/Nc2ncnc(Cl)c2N)ccc1O
  A: . | B: . | C: 2444 | D: -5 | E: . | F: -66 | G: .
COc1ccc(CN2CCC(CNC(=O)NC3CCCCC3)CC2)cc1
  A: . | B: . | C: 4722 | D: 12 | E: 1.3 | F: -34 | G: 7
O=C(Nc1ccccc1)c1ccncc1
  A: 6 | B: 9 | C: 4507 | D: -19 | E: 3.8 | F: -3 | G: -2
CC(=NO)C(=O)C(CN1CCCCC1)CN1CCCCC1
  A: -10 | B: -1 | C: . | D: . | E: -1.8 | F: . | G: -5
Cc1ccc(C2=Nc3ccccc3SC(c3cccc([N+](=O)[O-])c3)C2)cc1 (stereo not given)
  A: . | B: . | C: 3827 | D: 24 | E: 5.9 | F: -35 | G: -2
O=C(Nc1ccc2c(c1)OCO2)c1cccc2c1C(=O)N(Cc1cccnc1)C2
  A: . | B: . | C: 4602 | D: -6 | E: 6.8 | F: 0 | G: 6
O=C(NCC1CCCCC1)c1cccnc1
  A: . | B: . | C: 3065 | D: 1 | E: 3.1 | F: 8 | G: 4
Cc1cc2cc3c(cc2nc1SCC(=O)O)CCC3
  A: -9 | B: 11 | C: 5584 | D: 2 | E: -13 | F: -12 | G: 11
CC(=O)Nc1ccc(NC(=O)c2ccnn2C)cc1
  A: 1 | B: -11 | C: 6403 | D: -5 | E: -4.1 | F: -26 | G: -1
C/C(=N\NC(=O)c1ccc(Cl)cc1)c1ccccn1
  A: . | B: . | C: 4061 | D: 35 | E: . | F: -16 | G: .
CC(=O)C1=C(O)C(=O)N(C)C1c1ccccc1[N+](=O)[O-] (stereo not given)
  A: 13 | B: 5 | C: 4073 | D: 11 | E: 3.2 | F: 6 | G: 7
Cc1ncoc1C(=O)Nc1ccccc1-c1ccccc1
  A: 2 | B: 2 | C: 23728* | D: -8 | E: 2.5 | F: -11 | G: 2
O=C(N/N=C/c1ccccc1[N+](=O)[O-])c1ccc2c(c1)OCCO2
  A: . | B: . | C: 5271 | D: 0 | E: . | F: -42 | G: .
O=C1C2C(C=Cc3ccccc3)N3C(=O)CN(CCO)C(=O)[C@@]3(Cc3ccccc3)C2C(=O)N1c1ccccc1 (stereo not given in full)
  A: 8 | B: 7 | C: . | D: . | E: 3.6 | F: . | G: -8
O=C(C[n+]1ccc(C(=O)c2ccccc2)cc1)Nc1ccc(C(F)(F)F)cc1
  A: 14 | B: 17 | C: 1984 | D: 0 | E: 0.0 | F: -12 | G: -11
CC(=O)c1sc(NC(=O)c2ccc(F)c(F)c2)nc1C
  A: 9 | B: 5 | C: 11021 | D: 12 | E: 3.0 | F: -36 | G: 1
O=C(C[N+]1(CC#Cc2ccccc2)CCOCC1)c1ccccc1
  A: 12 | B: 7 | C: 6493 | D: 5 | E: 4.5 | F: -15 | G: 1
CN(C)c1ccc(N/C(=N\S(=O)(=O)c2cccs2)c2ccccc2)cc1
  A: . | B: . | C: 2233 | D: 3 | E: . | F: -24 | G: .
Cc1ccc(S(=O)(=O)c2ccc(Cl)cc2)cc1S(=O)(=O)N1CCOCC1
  A: 3 | B: 3 | C: 11190 | D: 3 | E: 10.0 | F: -14 | G: -3
O=C(NCC1CCCO1)c1onc(CSc2cccc3ccccc23)c1C(=O)O (stereo not given)
  A: . | B: . | C: 2884 | D: 3 | E: . | F: -23 | G: .
O=C(O)CCc1ccc(-c2ccccc2)n1Cc1ccco1
  A: . | B: . | C: 3621 | D: -4 | E: 4.4 | F: -12 | G: 7
O=C(O)c1cc(S(=O)(=O)N2CCN(S(=O)(=O)c3ccc4ccccc4c3)CC2)ccc1Br
  A: -5 | B: -19 | C: 3834 | D: . | E: 2.1 | F: 11 | G: 2
O=C(COc1ccc(F)cc1Br)NCc1nnc2ccccn12
  A: -6 | B: 1 | C: 8441 | D: . | E: -1.4 | F: -15 | G: 1
COc1ccc(Cn2c(N)c(S(=O)(=O)c3cccs3)c3nc4ccccc4nc32)cc1
  A: -7 | B: -1 | C: 5945 | D: . | E: 1.6 | F: -19 | G: -6
Cn1nc(-c2ccc(Cl)cc2)cc1NC(=O)CCCC(=O)O
  A: 1 | B: 3 | C: 6840 | D: -8 | E: 3.8 | F: . | G: 6
CCNC(=S)NNC(=O)c1cc(-c2ccc(OCC)cc2)nc2ccccc12
  A: -1 | B: 0 | C: 8176 | D: 54* | E: 5.5 | F: 58* | G: 4
N#C/C(=C\c1cccs1)C(=O)NCC1CCCO1 (stereo not given)
  A: 8 | B: 5 | C: 8511 | D: -1 | E: -0.1 | F: -57 | G: -6
O=C(CCc1ccccc1)N1CCN(c2ccccn2)CC1
  A: 16 | B: 17 | C: 2474 | D: 7 | E: 0.5 | F: -8 | G: 2
COC(=O)c1sccc1NC(=O)Nc1ccccc1F
  A: -4 | B: 1 | C: 2601 | D: -4 | E: 3.5 | F: 42 | G: -2
CC(=O)N1CCC(C(=O)Nc2ccccc2)(N(Cc2ccccc2)C(=O)c2cccnc2)CC1
  A: 8 | B: 2 | C: 3240 | D: 2 | E: 5.6 | F: -40 | G: -3
COC(=O)c1c(NC(=O)C2=COCCO2)sc(C)c1C
  A: 3 | B: -6 | C: 4650 | D: -4 | E: 5.5 | F: -13 | G: 3
CCOCCCNc1nc(C)nc2c1nnn2Cc1c(F)cccc1Cl
  A: 12 | B: -1 | C: 4897 | D: -8 | E: 7.6 | F: -1 | G: -1
Cc1ccc2c(Cl)cc(Cl)c(OCC(=O)Nc3cccc(S(N)(=O)=O)c3)c2n1
  A: 8 | B: 3 | C: 2000 | D: 2 | E: 6.6 | F: 0 | G: -5
CCN(CCS(=O)(=O)c1ccc(Br)cc1)Cc1nc2ccccc2c(=O)[nH]1
  A: 5 | B: 3 | C: 3439 | D: . | E: 6.7 | F: -16 | G: 3

# 7 entries from above, with tabs:
Structure	Mtb hypoxia rep	Mtb hypoxia rep growth	Autofluor counter	BJeLR viability	Sa RN4220 lethal	PrP UTR inh	ugtP null kill
O=C(C[n+]1ccc(C(=O)c2ccccc2)cc1)Nc1ccc(C(F)(F)F)cc1	14	17	1984	0	0.0	-12	-11
CC(=O)c1sc(NC(=O)c2ccc(F)c(F)c2)nc1C	9	5	11021	12	3.0	-36	1
O=C(C[N+]1(CC#Cc2ccccc2)CCOCC1)c1ccccc1	12	7	6493	5	4.5	-15	1
CN(C)c1ccc(N/C(=N\S(=O)(=O)c2cccs2)c2ccccc2)cc1	.	.	2233	3	.	-24	.
Cc1ccc(S(=O)(=O)c2ccc(Cl)cc2)cc1S(=O)(=O)N1CCOCC1	3	3	11190	3	10.0	-14	-3
O=C(NCC1CCCO1)c1onc(CSc2cccc3ccccc23)c1C(=O)O (stereo not given)	.	.	2884	3	.	-23	.
O=C(O)CCc1ccc(-c2ccccc2)n1Cc1ccco1	.	.	3621	-4	4.4	-12	7

# Other structures:
# Key to letters: A = Mtb hypoxia rep; B = Mtb hypoxia rep growth; C = Autofluor counter; D = BJeLR viability; E = Sa RN4220 lethal; F = PrP UTR inh; G = ugtP null kill
N#Cc1cc2cc3c(cc2nc1N1CCOCC1)OCO3
  A: . | B: . | C: 4170 | D: 11 | E: 15 | F: -31 | G: 0
O=C1Cc2cc(S(=O)(=O)NCc3ccc(F)cc3)ccc2N1
  A: 1 | B: 5 | C: 3711 | D: . | E: 1.8 | F: 7 | G: -3
O=C(COC(=O)CNC(=O)c1ccccc1)NCCc1ccccc1
  A: -1 | B: 2 | C: 2560 | D: -8 | E: 2.9 | F: -27 | G: 8
O=c1[nH]c(SCc2ccc(Cl)cc2)nc2[nH]ncc12
  A: 11 | B: 2 | C: 2465 | D: -6 | E: 6.3 | F: -38 | G: -7
Cc1nc2c3ccccc3nc(NNC(=O)CCC(=O)NC3CCCC3)n2n1
  A: 13 | B: 5 | C: 2082 | D: -4 | E: 8.2 | F: -15 | G: 5
C#CCOc1ccc(Br)cc1C(c1c(C)[nH][nH]c1=O)c1c(C)[nH][nH]c1=O
  A: 13 | B: 5 | C: 3513 | D: -8 | E: 3.2 | F: -23 | G: 5
O=C(Nc1cccc(S(=O)(=O)N2CCCC2)c1)C1CCCN1C(=O)c1cccs1 (stereo not given)
  A: 2 | B: 5 | C: 3388 | D: 8 | E: -0.5 | F: -13 | G: 3
Cc1ccc2cc(CN(CCN(C)C)C(=O)Nc3ccc(Cl)cc3)c(=O)[nH]c2c1
  A: 6 | B: 12 | C: 5117 | D: -6 | E: -6.1 | F: -32 | G: -10
O=[N+]([O-])CCO
  A: 11 | B: 3 | C: 5085 | D: . | E: 4.1 | F: -26 | G: 7
CC(C)CN(C(=O)COC(=O)CSc1ccc([N+](=O)[O-])cc1)C1CCS(=O)(=O)C1 (stereo not given)
  A: 1 | B: 0 | C: . | D: 0 | E: 1.9 | F: -4 | G: -1
